# High-throughput results deposited in PubChem by ICCB-Longwood Screening Facility, Harvard Medical School.
# Mtb MenB inh – M. tuberculosis MenB inhibitors, primary screen, biochemical, absorbance. 1,4-dihydroxy-2-naphthoyl-CoA synthase (Mycobacterium tuberculosis (strain ATCC 25618 / …. MenB enzyme assay, absorbance read-out; some hits fall short of the stated cut. inhibition, %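 (about 12 µg/mL by stock and volumes)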. 100,000 compounds, 0.43% hits. AID 540299, 2011;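 active = mean of two replicates above 30%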;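 also: 0% = no compound and 100% = wells with inactive enzyme; the first replicate is given; strong numbers were not always called active; inactives centre near -10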
# Target sequence (P9WNP5 whole entry, looked up): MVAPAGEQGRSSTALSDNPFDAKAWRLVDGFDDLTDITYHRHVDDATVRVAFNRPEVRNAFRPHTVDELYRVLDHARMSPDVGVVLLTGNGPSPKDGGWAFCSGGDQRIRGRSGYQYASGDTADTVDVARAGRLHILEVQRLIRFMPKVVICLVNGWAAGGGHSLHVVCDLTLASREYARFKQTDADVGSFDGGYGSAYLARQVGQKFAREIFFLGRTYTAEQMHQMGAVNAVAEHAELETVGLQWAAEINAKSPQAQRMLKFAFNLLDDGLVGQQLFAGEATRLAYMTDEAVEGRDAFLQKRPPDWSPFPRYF
# Polio RdRp inh – poliovirus RdRp elongation inhibitors, primary screen, biochemical, fluorescence polarization, total intensity | Genome polyprotein (Poliovirus type 1 (strain Mahoney)), P03300 | poliovirus polymerase elongation; stronger effect = lower value | % elongation, % (compound at 16.7 µg/mL) | 150,000 compounds, 0.66% hits | AID 588519, 2011; in the data active = % elongation below about 90%; also: some results filed as inactive read as strong as hits
# Mtb MbtI inh – MbtI salicylate synthase inhibitors, primary screen, biochemical, fluorescence intensity; P9WFX0; purified MbtI enzyme, fluorescence intensity read-out; inhibition, %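 (about 17 µg/mL by stock and volumes)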; 100,000 compounds, 0.89% hits; AID 493033, 2011;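 active = above 50% in both replicates, above 80% if mildly self-fluorescent; inactive = the rest, strongly fluorescent compounds included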;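 also: 0% = mean of negative and 100% = mean of positive controls; one replicate is shown; some compounds called inactive have numbers as strong as hits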
# Target sequence (P9WFX0 whole entry, looked up): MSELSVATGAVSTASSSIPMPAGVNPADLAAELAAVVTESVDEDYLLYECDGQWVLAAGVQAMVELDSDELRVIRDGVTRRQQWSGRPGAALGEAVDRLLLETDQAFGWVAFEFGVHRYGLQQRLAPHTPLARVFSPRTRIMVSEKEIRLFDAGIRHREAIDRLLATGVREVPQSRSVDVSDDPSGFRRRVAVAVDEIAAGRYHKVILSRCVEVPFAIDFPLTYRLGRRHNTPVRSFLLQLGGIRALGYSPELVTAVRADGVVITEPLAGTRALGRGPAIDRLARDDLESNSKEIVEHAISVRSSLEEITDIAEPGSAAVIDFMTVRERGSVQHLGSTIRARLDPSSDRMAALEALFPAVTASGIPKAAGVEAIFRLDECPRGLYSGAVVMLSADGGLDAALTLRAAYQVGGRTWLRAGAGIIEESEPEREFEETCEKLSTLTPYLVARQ
# Polio RdRp inh intensity – recorded beside Polio RdRp inh, whose call it bears; % elongation; measured here: total intensity read-out; formula for this scale not given here;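 total fluorescence in place of polarization; lower means less elongation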
# * hit, by the source's call; . = no result given; & = joins results of further samples. This is a random part of the collection; about 1.8% have a hit in one of these screens.
SMILES,Mtb MenB inh,Polio RdRp inh,Polio RdRp inh intensity,Mtb MbtI inh
Cc1cc(C(=O)COC(=O)c2ccc(NC(=O)CC#N)cc2)c(C)n1C1CC1,-6.1,114.0,118.0,-15.4
CCN1C(=O)/C(=C/c2ccco2)NC1=S,-210.4,97.0,126.0,15.4
O=C1CCC(C(=O)Nc2ccccc2)N1 (configuration not stated),-17.2,99.0,102.0,3.9
CCOC(=O)c1cc(NC(=O)N2CCCC2)c(C)nc1C,-22.0,106.0,106.0,-7.2
O=C(C1CCN(c2ncnc3sccc23)CC1)N1CCCCCC1,-13.7,103.0,106.0,-0.1
CCN1C(=O)CSC1=Nc1cccc(C(=O)O)c1,-9.8,101.0,97.0,-2.6
COc1ccc(NS(=O)(=O)c2cccc(C(=O)N/N=C(\C)c3ccco3)c2)cc1,-15.9,99.0,106.0,12.9
COC(=O)c1ccccc1N(C)C(=O)c1cccc(S(=O)(=O)N2CCCCC2)c1,-6.3,101.0,104.0,.
C=CCn1c(-c2ccc(Cl)cc2)cnc1SC(C)C(N)=O (configuration not stated),-16.5,104.0,108.0,-6.3
NCCC(=O)OCC1CCCN2CCCCC12 (configuration not stated),8.8,102.0,112.0,.
COc1ccc(NC(=O)C2=C(C)C(=O)OC23CCN(S(C)(=O)=O)CC3)c(OC)c1,-25.8,99.0,101.0,1.8
O=C1c2ccccc2C(=O)c2c1ncn2Cc1ccccc1,.,103.0,103.0,-8.9
COc1ccc(C(=O)COC(=O)CCc2nc3ccccc3[nH]c2=O)cc1Br,-56.9,103.0,89.0,.
CCCN1C(=O)CSC1=Nc1ccccc1,-1.4,102.0,104.0,-2.4
COC(=O)c1sccc1S(=O)(=O)N1CCN(c2ncnc3c(C)csc23)CC1,-18.7,107.0,112.0,-11.9
O=C1CC(=O)N(/N=C2\C(=O)Nc3ccccc32)C(=S)C1,-116.5,92.0,94.0,.
COC(=O)c1cccnc1SC,-30.6,106.0,102.0,0.8
CC(OC(=O)c1ccco1)C(=O)Nc1ccc(C(F)(F)F)cc1 (configuration not stated),-12.8,103.0,107.0,9.0
CC(=O)N1CCN(c2ccc(Oc3nnnn3-c3ccccc3)cc2)CC1,-14.6,106.0,103.0,-2.0
O=C1c2ccccc2NC(c2cccs2)N1CCCN1CCOCC1 (configuration not stated),-3.7,101.0,100.0,99.5
Cn1cnnc1SCc1ccc(C(=O)N/N=C/c2cccs2)cc1,1.9,102.0,109.0,10.3
COC(=O)c1ccc(C2C(Oc3ccccc3)C(=O)N2CCc2ccc(OC)c(OC)c2)cc1 (configuration not stated),-9.3,98.0,94.0,-2.4
O=C(NCc1ccccc1)c1ccc(CS(=O)c2ccccc2)o1 (configuration not stated),4.0,102.0,106.0,-4.2
CCc1cccc(NC(=O)C2c3ccccc3Oc3ccccc32)c1,-29.7,102.0,104.0,-19.4
COc1cccc(N2CCN(CC(=O)c3c(N)n(C)c(=O)n(C)c3=O)CC2)c1,1.8,.,.,-5.5
Cc1ccc(C(=O)CCC(=O)N2CCN(C/C=C/c3ccccc3)CC2)cc1,-12.3,104.0,107.0,-4.0
Cc1cccc(-c2cc3nc(C)c(C)c(N4CCC5(CC4)OCCO5)n3n2)c1,-1.2,109.0,107.0,8.6
CN(C)S(=O)(=O)c1cccc(C(=O)N2CCN(C(=O)C3CCCO3)CC2)c1 (configuration not stated),-7.2,102.0,109.0,-16.4
O=c1c2ccccc2[nH]c(=S)n1CCCN1CCN(c2ccccc2)CC1,18.8,99.0,104.0,5.8
CCC(=Nc1ccccc1N)c1c(O)[nH]c(=O)[nH]c1=O,-13.4,102.0,108.0,.
CN(CC1COc2ccccc2O1)C(=O)c1cc(=O)[nH]c2ccccc12 (configuration not stated),1.7,.,.,41.5
CC1=C(C(=O)OC(C)(C)C)C(c2cccc(Cl)c2)NC(=O)N1 (configuration not stated),-13.2,100.0,102.0,-6.2
O=C(NCc1ccccc1)c1ccc(CSCc2cccc(Cl)c2)o1,-10.9,102.0,101.0,-4.2
C=CCNC(=O)c1ccc(OCC=C)cc1,-28.8,102.0,100.0,-3.3
COCCNC(=O)Cn1cc(/C=C(\C#N)C(N)=O)c2ccccc21,-239.2,103.0,102.0,-5.5
Cn1nccc1NC=C(C#N)C#N,-24.2,103.0,100.0,18.9
CCC(C(=O)Nc1ccc2c(c1)OCO2)n1nc(-c2ccc(C)cc2)c2c(c1=O)CCCC2 (configuration not stated),-1.8,100.0,102.0,0.4
CS(=O)(=O)N1N=C(c2ccccc2)CC1c1ccccc1 (configuration not stated),-14.7,101.0,105.0,-15.4
O=C(OC1COC(c2ccc(Br)cc2)OC1)c1ccc(Br)cc1 (configuration not stated),-17.8,104.0,100.0,10.5
O=c1oc2c(-c3cccc(Cl)c3)cc(O)cc2s1,7.8,102.0,104.0,33.1
Cc1sc2c(c1C)CSC(C(=O)NCCc1ccccc1)=C2,-24.8,100.0,104.0,32.2
O=C1NCCCCC1NCC(O)c1ccccc1 (configuration not stated),9.8,101.0,100.0,32.7
O=C(Nc1cccc(N2CCCC2)c1)C(F)(F)C(F)F,4.1,102.0,107.0,-14.4
CC1CN(Cc2nc(N3CC(C)OC(C)C3)c3c4c(sc3n2)CCCC4)CC(C)O1 (configuration not stated),-10.1,107.0,112.0,-1.8
COc1ccc2c(CNCC(C)c3ccccc3)c(C(=O)O)n(Cc3ccc(F)cc3)c2c1 (configuration not stated),-12.4,101.0,97.0,-1.4
Nc1nc2cc(Cl)ccc2n1CCCO,0.0,102.0,102.0,-5.2
CCn1ncc(Cl)c1C(=O)NCc1ccco1,6.1,99.0,99.0,5.3
COc1ccc(C(=O)c2ccc(OC)cc2OC)c(OC)c1,-45.0,104.0,100.0,11.7
CC(C)(C)c1cc2nc(C(F)(F)F)cc(N3CCN(c4ccc(C(F)(F)F)cn4)CC3)n2n1,11.2,102.0,103.0,17.8
O=C(CSc1nc2ccccc2n1CCc1ccccc1)NC1CC1,.,102.0,102.0,1.3
CC(=O)N=C(C)CC1(OC(C)=O)C(=O)N(C)c2ccccc21 (configuration not stated),-67.6,103.0,101.0,17.8
CCC(NC(=O)Nc1cc(C)ccc1OC)c1c(-n2cccc2)sc2c1CCN(CC)C2 (configuration not stated),-7.4,102.0,104.0,-6.9
Cc1c(Cl)cnc(NC(=O)COC(=O)/C=C/c2cccn2C)c1Cl,-36.8,.,.,18.7
c1ccc2c(c1)OCC(CSc1nnc3ccccn13)O2 (configuration not stated),-5.6,103.0,110.0,7.1
COc1cc(OC)cc(C(=O)N2CCC(C(=O)NCCc3ccccc3)CC2)c1,47.9*,102.0,103.0,2.5
O=C(Nc1cccc(Cl)c1)Nc1ccc2c(c1)oc1ccccc12,-19.9,103.0,96.0,-1.5
COc1ccc(-c2nc(SCC(=O)C(C#N)c3nc(C)cs3)n[nH]2)cc1 (configuration not stated),-4.5,102.0,104.0,9.8
O=C(NCCc1ccccc1)C1CCC(=O)N1C1CCCCC1 (configuration not stated),5.4,101.0,104.0,3.0
CC(=O)N1CCN(S(=O)(=O)c2cccc(C(=O)OCc3cc(Cl)cc4c3OCOC4)c2)CC1,-23.3,106.0,106.0,16.3
CCOC(=O)c1c(C)[nH]c(C)c1S(=O)(=O)NC1CCCCCCC1,-33.0,106.0,103.0,-10.0

# (further entries)
SMILES,Mtb MenB inh,Polio RdRp inh,Polio RdRp inh intensity,Mtb MbtI inh
C=C(C)C(=O)N1C(=O)OCC1c1ccccc1 (configuration not stated),6.9,91.0,88.0,.
O=C(Cc1ccccc1)Nc1nc2ccccc2s1,-108.1,101.0,98.0,-5.3
Cc1cc(Br)cc(Br)c1OC(=O)c1ccco1,-39.1,104.0,104.0,-7.2
CN1CCN(/N=C/c2ccc(OC(F)F)cc2OC(F)F)CC1,-7.2,100.0,106.0,3.0
Cc1cc(C)c2c(c1)NC(=O)C21NNc2ccccc2O1 (configuration not stated),-39.4,148.0,191.0,16.5
C/C(=N\NC(=O)CCn1c2c(c3ccccc31)CCCC2)c1ccc(Br)s1,7.8,102.0,103.0,5.0
O=C(CNC(=O)C1CCCCC1)OCc1cc(=O)n2cc(Br)ccc2n1,-23.7,104.0,106.0,6.0
Cc1ccc2cc3c(N)c(-c4nnc(-c5ccccc5)o4)sc3nc2c1,-15.1,79.0,137.0,-24.0
CCn1c(=O)/c(=C\c2ccc(N(C)C)cc2)s/c1=C(/C#N)C(=O)Nc1ccc(C)cc1,-85.1,44.0,234.0,7.0
Cc1ccc(-n2ncc(N(C)n3cccc3)c(Cl)c2=O)cc1,-13.1,105.0,106.0,-8.2
Cn1nnc2cc(C(=O)NCc3ccco3)ccc21,-5.7,100.0,103.0,3.6
COc1cc(C(=O)NN2C(=O)CSC2=S)cc(OC)c1OC,-54.9,101.0,106.0,6.7
CCC(=O)/C=C\c1nnc2cc3c(cc2c1-c1ccc(CC)o1)OCCO3,-41.2,99.0,108.0,17.1
CCC(CC)c1nnc(NC(=O)C2COc3ccccc3O2)s1 (configuration not stated),2.7,105.0,109.0,14.0
O=C(Nc1nc(-c2cccs2)cs1)c1ccc(S(=O)(=O)N2CCOCC2)cc1,-26.4,100.0,101.0,6.3
Fc1ccccc1N1CCN(Cc2cn[nH]c2-c2ccc(Cl)cc2)CC1,-9.3,102.0,102.0,-11.7
COc1cccc(C(=O)N2CCC(C(=O)N3CCOCC3)CC2)c1,5.6,106.0,110.0,.
CCN(C(=O)CSc1nnc(Cn2nnc3ccccc32)o1)c1nc(-c2ccccc2)cs1,0.0,101.0,102.0,-7.8
O=S(=O)(c1ccc(NCC2CCCO2)nc1)N1CCC(Cc2ccccc2)CC1 (configuration not stated),-12.8,.,.,50.0
COc1ccc(-c2nc(C#N)c(N3CCC(C(N)=O)CC3)o2)cc1,12.5,104.0,106.0,111.6
NNC(=O)Cn1ccc(C(F)(F)F)n1,-5.4,114.0,113.0,-3.8
CCc1ccc(N=Cc2c(O)n(-c3ccccc3)c(=O)c3ccccc23)cc1,-15.2,100.0,100.0,-14.6
CCOC(=O)c1c(C)n(C(C)C)c2ccc(OC(=O)c3ccco3)cc12,-30.3,103.0,102.0,-9.0
Cn1c(=O)n(C)c2cc(S(=O)(=O)NC3CCCCC3)ccc21,-17.4,102.0,107.0,-2.6
Cc1ccc(C)c(N=C2SCCCN2C(=O)c2ccc(C#N)cc2)c1,-10.1,101.0,107.0,-3.8
COC(=O)c1c(CSc2nnc(-c3cc(OC)c(OC)c(OC)c3)o2)nc2ccccc2c1C,11.6,98.0,104.0,-0.9
CCCn1cnc2ccccc21,.,102.0,101.0,-5.4
CCS(=O)(=O)Nc1ccccc1-c1ccccc1,1.2,103.0,105.0,-155.4
O=C(N/N=C/c1cc2c3c(c1O)CCCN3CCC2)c1ccncc1,-192.1,105.0,152.0,19.2
COc1ccc(S(=O)(=O)Nc2ccccc2C(=O)NCc2ccco2)cc1OC,4.7,103.0,102.0,83.8
CCC(c1ccc(O)cc1)C(CC)c1ccc(O)cc1 (configuration not stated),5.2&-13.8,100.0&103.0,99.0&101.0,-17.7&-17.6
O=C(O)CN1C(=O)CC(Cc2ccccc2)C1=O (configuration not stated),21.0,101.0,102.0,-11.1
O=C(Cc1cccs1)Nc1nnc(Cc2ccccc2)s1,-19.8,92.0,100.0,.
COc1cccc(Oc2coc3cc(OC(=O)N(C)C)ccc3c2=O)c1,0.5,103.0,101.0,1.9
COC(=O)c1c(COC(=O)c2ccc(NC(=O)c3ccco3)cc2)nc2ccccc2c1C,-25.3,102.0,105.0,11.7
CCC(C)C(NC(N)=O)C(=O)Nc1cccc(Cl)c1 (configuration not stated),-26.5,102.0,104.0,-1.8
NC(=O)CSc1nc(-c2ccccc2)cs1,10.6,99.0,105.0,7.0
CN(C)C(CNC(=O)c1ccc(S(=O)(=O)N2CCCc3ccccc32)cc1)c1ccco1 (configuration not stated),0.6,101.0,101.0,7.9
Cc1ccc2c(c1)c(=O)c(C(=O)O)cn2C,-18.4,102.0,107.0,-2.2
